# Screens from PubChem.
# TRPV1 potentiator: human TRPV1 potentiation. Q8NER1. TRPV1-expressing cells, Fluo-8 calcium influx, capsaicin EC20 potentiation; host cell line not named in the record; control for the full effect not named in the record. potentiation, % at 8.33 µM. 0.02% of 320,000 active; active means potentiation above 80%; inconclusive means 30% to 80%; inactive means below 30%; also: 0% is about no effect
#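 Cells expressing TRPV1 were dye-loaded with Fluo-8 and read kinetically: 10 s baseline, 3 min after compound (agonist portion), then 2 min after EC20 capsaicin (allosteric enhancer portion). Calcium-bound dye fluorescence at 480/520 nm.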
# ClpP mod: qHTS Assay for Activators of ClpP | purified B. subtilis ClpP, FRET peptide cleavage, 20 min | Potency, µM (series often up to 57.5 µM), inactives show top-dose activity change, negative = active | 1.9% of 340,000 active | AID 651965, 2013; active = well fitted falling curve with a large enough effect; inconclusive = small, poorly fitted or top-dose-only effect; inactive = no such curve, though single readings can be large or run the other way; also: potency is read from the fitted curve at half-maximal effect; the source files actives as falling curves though it sought activators and does not explain the sign; nearly all actives have a fitted effect of over 65% in size; many hits overshoot -100%
# Target sequence (P80244 whole entry, looked up): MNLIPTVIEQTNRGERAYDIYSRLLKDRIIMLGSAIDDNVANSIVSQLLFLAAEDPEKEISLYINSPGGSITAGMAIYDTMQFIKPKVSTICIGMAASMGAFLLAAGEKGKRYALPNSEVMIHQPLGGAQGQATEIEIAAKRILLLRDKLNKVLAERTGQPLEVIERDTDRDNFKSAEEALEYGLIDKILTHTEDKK
#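 Buffer: 100 mM Tris/HCl pH8, 100 mM KCl, 0.05% low protease BSA, 2.5% glycerol, 0.01% Tween-20. ClpP 10 microg/mL final; 20 min RT; delta FRET normalized to ADEP and DMSO controls.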
# gsp agonist: activates gsp, the McCune-Albright syndrome mutation | gsp mutant cells, cAMP HTRF, 30 min; control for the full effect not named in the record | Potency, µM (doses to about 76.9 µM), for inactives: top-dose activation (cAMP increase), actives largely listed as activators | 0.13% of 340,000 active; active = well fitted activation curve with a large enough effect; inconclusive = small, poorly fitted or top-dose-only effect, or another doubt; inactive = no such curve, though single readings can be large or run the other way; cell line not stated here;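 also: phosphodiesterase inhibitor Ro 20-1724 added with compounds to block cAMP breakdown; potency is read from the fitted curve at half-maximal effect; nearly all actives have a fitted effect of over 60% in size; about a fifth of the inactives were tested at one dose only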
#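 Cells in DMEM/10% FBS with G418 were pretreated with compounds in DMSO plus […] (300 uM stock) for 30 min at 37C. cAMP was measured by HTRF (cAMP-d2 plus anti-cAMP antibody-K) after 30 min at room temperature.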
# gsp antag: antagonists of gsp mutant (McCune-Albright syndrome); 0.4% of 340,000 active; gsp-mutant cells, cAMP HTRF, 30 min; control for the full effect not named in the record; Potency, µM (highest dose often 76.9 µM), for the others: top-dose activity change, negative = inhibition, hits mostly inhibitors; active = falling curve of any shape with a large fitted effect; inconclusive = falling curve, mostly with a smaller effect; inactive = flat or rising curve; cell line not stated here;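 also: intracellular cAMP measured with PDE inhibitor Ro 20-1724 present during compound exposure; potency is read from the fitted curve at half-maximal effect; % is scaled to controls: 0 for no effect and ±100 for the full control effect; nearly all actives have a fitted effect of over 65% in size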
#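 Cells in G418 medium, seeded 16-24 h, 37C; buffer exchange to DPBS + 1 mM CaCl2, 0.5 mM MgCl2, 0.05% BSA; cpds in DMSO + […] (300 uM stock), 30 min 37C; HTRF cAMP detection.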
# Menin MLL FP FL: menin-MLL binding inhibition, fluorescein peptide; Fluorescence polarization, fluorescein-MLL peptide displacement from menin; FP activity change, % at 61.4 µM; 290,000 tested, under 10 active; AID 1766; inconclusive = falling polarisation curve, or a change in total fluorescence; inactive = total fluorescence flat and polarisation flat or rising; no compound was filed as active; the % refers to the polarisation; negative = inhibition;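 also: % of control where 0% means no effect; inhibitors lower the polarisation; unlabelled MLL peptide was the positive control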
# D2 potentiator: positive allosteric modulators of human D2 dopamine receptor | P14416 | DiscoveRx D2 beta-arrestin cells, luminescence, 90 min; 100% = 57 uM dopamine signal | potentiation, % (test concentration not listed) | 0.23% of 360,000 active; active = potentiation of 50% or more; inconclusive = 30% to 50%; inactive = 30% or less;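 also: compound concentration not given in the record; tested on top of an EC20 dose of dopamine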
# Target sequence (P14416 whole entry, looked up): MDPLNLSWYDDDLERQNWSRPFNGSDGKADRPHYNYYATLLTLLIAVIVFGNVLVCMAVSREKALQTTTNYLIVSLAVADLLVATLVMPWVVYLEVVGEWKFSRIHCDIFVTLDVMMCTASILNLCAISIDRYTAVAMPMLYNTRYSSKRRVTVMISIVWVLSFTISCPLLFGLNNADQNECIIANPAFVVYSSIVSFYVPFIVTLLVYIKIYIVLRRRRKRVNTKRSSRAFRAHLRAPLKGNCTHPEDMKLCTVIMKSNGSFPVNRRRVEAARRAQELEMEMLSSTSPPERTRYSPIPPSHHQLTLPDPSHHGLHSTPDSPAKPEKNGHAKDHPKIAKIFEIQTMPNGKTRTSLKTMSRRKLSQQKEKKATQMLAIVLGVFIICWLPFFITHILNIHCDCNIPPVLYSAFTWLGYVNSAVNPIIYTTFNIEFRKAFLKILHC
#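 PathHunter D2 cells, attached overnight at 37 deg C, received compound in DMSO plus dopamine at EC20 (50 nM final) for 90 min at 37 deg C. Beta-arrestin recruitment was read as luminescence after 1 h with detection reagent at ambient temperature.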
# Sfp inh: blocks B. subtilis Sfp PPTase activity; AID 1490; Potency, µM, inactives show max response, negative = inhibition, actives largely listed as inhibitors; Biochemical Sfp PPTase activity, qHTS; 3.5% of 310,000 active; active = well fitted inhibition curve with a large enough effect; inconclusive = small, poorly fitted or top-dose-only effect, or another doubt; inactive = no such curve, though single readings can be large or run the other way;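 also: the enzyme is Sfp with the accession as filed and its product quenches rhodamine fluorescence; potency is read from the fitted curve at half-maximal effect; 0% = enzyme reaction without inhibitor and -100% = no enzyme wells; top concentration of the series not given in the record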
#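 Compounds were incubated with enzyme (final 15 nM) for 15 min at room temperature before substrate addition started the reaction. Fluorescence at 525 nm excitation, 598 nm emission was recorded immediately and after 30 minutes.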
# An asterisk follows results filed as active; ? = inconclusive; . = not tested or not shown; & = joins results of further samples; [ ] = remark or other dose.
no.	molecule	TRPV1 potentiator	ClpP mod	gsp agonist	gsp antag
1	Cc1nc(Cc2nnc(SCC(=O)N3CCN(c4ccc(O)cc4)CC3)o2)cs1	-2	-0.3%	-26%	2%
2	O=C(CN1CCCC1)Nc1ccccc1Sc1ccccc1	-49	.	2%[15.4 µM]	-2%
3	COc1ccc(-c2ccccc2)cc1NC(=O)c1ccncc1	.	.	29%	-6%
4	COc1ccccc1OCCCCN1CCC(C)CC1	2	-1.3%	0%[15.4 µM]	7%
5	CC(=O)c1sccc1NC(=O)c1ccccc1C(=O)O	-11	.	?	18%
6	COc1ccccc1OC(C)C(=O)Nc1ccc2c(c1)n(C)c(=O)n2C (stereo unspecified)	2	-0.3%	-4%	7%
7	O=C(Nc1ccc(N2CCOCC2)cc1N1CCOCC1)c1ccc([N+](=O)[O-])cc1	-1	-0.4%	-32%[inhibitor]	13%
8	O=C1CCCN1CCCNc1ncnc2c1cnn2-c1ccc(Cl)cc1	4	5.0%	-29%	-8%
9	COc1ccc(OC)c(NC(=O)NC2CCCCCCC2)c1	3	0.6%	?	3%
10	COc1ccc(C(=O)c2ccc(N3CCOCC3)c([N+](=O)[O-])c2)cc1	0	.	-4%[15.4 µM]	?
11	COc1ccccc1NC(=O)CN1CCN(c2ccccc2OC)CC1	-6	-0.8%	50%	-3%
12	CC(=O)C1=C(C)NC(=O)NC1c1cccs1 (stereo unspecified)	5	0.3%	3%	7%

no.	Menin MLL FP FL	D2 potentiator	Sfp inh
1	.	2	.
2	1.1	-8	-7%
3	.	-13	.
4	-9.4	-14	-7%
5	0.3	-2	22%
6	0.8	-3	-2%
7	5.8	-5	20%
8	0.7	-6	5%
9	.	-41	13%
10	-5.7	-1	17%
11	0.6	-9	11%
12	-3.3	-16	12%

# Continued (four carried over from the part before).
no.	molecule	TRPV1 potentiator	ClpP mod	gsp agonist	gsp antag
9	COc1ccc(OC)c(NC(=O)NC2CCCCCCC2)c1	3	0.6%	?	3%
10	COc1ccc(C(=O)c2ccc(N3CCOCC3)c([N+](=O)[O-])c2)cc1	0	.	-4%[15.4 µM]	?
11	COc1ccccc1NC(=O)CN1CCN(c2ccccc2OC)CC1	-6	-0.8%	50%	-3%
12	CC(=O)C1=C(C)NC(=O)NC1c1cccs1 (stereo unspecified)	5	0.3%	3%	7%
13	CC1(C)NC(=O)N(CC(=O)OCC(=O)c2ccc(Br)s2)C1=O	.	.	10µM*	14%
14	CCSc1nnc2c(n1)[nH]c1c(C)cccc12	-8	-5.2%	-2%	-4%
15	Cc1ccc(NC(=O)COC(=O)c2cccc(OC(F)F)c2)cc1S(=O)(=O)N1CCCCC1	1	-3.0%	-41%[inhibitor]	0%
16	COc1ccc2nc(NC(=O)CCNS(=O)(=O)c3ccc4c(c3)oc(=O)n4C)sc2c1	18	-3.4%	-50%	-4%
17	CCn1nc(C(=O)OCC(=O)NCCN2C(=O)CSC2=O)c2ccccc2c1=O	16	-5.1%	?	-3%
18	COC(=O)c1ccc(C2/C(=C(\O)c3cccc(OC)c3)C(=O)C(=O)N2CCCN2CCOCC2)cc1 (stereo unspecified)	10	-5.2%	-45%	4%
19	C#CCOCCOCCOCCNc1nc(N2CCN(C(=O)[C@H](CC(N)=O)n3cc(C(N)[C@H](C)CC)nn3)CC2)nc(N2CCN(C(=O)[C@H](CC(N)=O)n3cc(C(N)[C@@H](C)CC)nn3)CC2)n1 (stereo partly specified)	.	0.7%	4%	10%
20	CC1=C(C(=O)N2CCOCC2)C(c2cccc(C)c2)NC(=S)N1 (stereo unspecified)	-27	0.6%	-3%	18%
21	Cc1ccc(C(=O)Nc2cccc(C(F)(F)F)c2)cc1NC(=O)c1cnnc2ccccc12	1	-3.5%&-1.2%	-43%&-3%	1%
22	COc1ccc(Cn2c(C3CC3)nc3ccc(NC(=O)c4ccco4)cc3c2=O)cc1	-15	-6.8%	9%	-11%
23	Cc1ccc(C2(c3ccccc3)NC(=O)N(CC(=O)NCc3ccco3)C2=O)cc1C (stereo unspecified)	16	1.3%	-11%	1%
24	O=C(COc1cccc(Cl)c1)Nc1nc(-c2ccc(S(=O)(=O)N3CCOCC3)cc2)cs1	-10	-5.5%	23%	-4%

no.	Menin MLL FP FL	D2 potentiator	Sfp inh
9	.	-41	13%
10	-5.7	-1	17%
11	0.6	-9	11%
12	-3.3	-16	12%
13	.	-9	.
14	-1.2	-10	-3%
15	.	1	.
16	4.1	-17	-1%
17	-0.9	-1	7%
18	-0.1	0	9%
19	.	-10	.
20	1.6	-1	-15%
21	3.2	0&-3	-15%
22	2.3	2	2%
23	.	-8	.
24	7.2	2	17%

# Additional entries follow:
no.	molecule	TRPV1 potentiator	ClpP mod	gsp agonist	gsp antag
25	O=C(Oc1ccc2ccccc2c1Cl)N1CCCC1	8	-3.2%	-8%	-21%
26	O=C(NC(=O)N1CCN(c2ccc([N+](=O)[O-])cn2)CC1)c1c(Cl)cccc1Cl	-18	.	2%[15.4 µM]	2%
27	COc1ccc(OCCCC(=O)OCC(=O)Nc2ncc(Cl)cc2Cl)cc1	25	.	-3%[15.4 µM]	-2%
28	CCCCn1c(-c2cccc(C)c2)nc2cc3[nH]c(=O)c(C(C)C)nc3cc21	-3	4.5%	.	-23%
29	N#Cc1cccc(NC(=O)c2ccccc2C(=O)O)c1	-3	-2.6%	-39%[inhibitor]	1%
30	NCC(c1ccccc1Cl)c1c[nH]c2ccccc12 (stereo unspecified)	8	.	-17%	10%
31	COc1cccc(-c2cn3nc4c(nc3n2)CCCC4)c1	2	-7.7%	3%	-14%
32	Fc1ccc(-c2nc3ccccc3[nH]2)cc1	-7	3.0%	-21%	-4%
33	CCN(CC)CCCNC(=O)c1nn2c(C(F)(F)F)cc(-c3ccccc3)nc2c1Cl	17	1.7%	4%	1%
34	COc1ccc(CCNC(=O)COC(=O)Cc2cc(OC)c(OC)c(OC)c2)cc1	9	0.1%	-10%	0%
35	CCC(=O)/C=C1/Sc2ccc(OC)cc2N1CC	16	-3.4%	-16%	-10%
36	CCOc1ccc(NC(=O)COC(=O)Cc2ccc(S(=O)(=O)N3CCOCC3)s2)cc1	1	-4.8%	-7%	?

no.	Menin MLL FP FL	D2 potentiator	Sfp inh
25	-0.3	-12	-6%
26	-13	-1	-16%
27	.	3	.
28	-1.9	4	-18%
29	3.3	-11	3%
30	0.6	0	-16%
31	?	-13	79µM*
32	-0.4	-4	3%
33	-2.1	-3	7%
34	1.2	-15	21%
35	3.4	-11	-11%
36	10	10	7%

# Carrying on.
no.	molecule	TRPV1 potentiator	ClpP mod	gsp agonist	gsp antag
37	CC(C)(C)c1ccc(OCCC(=O)OCC(=O)NC2CCCCC2)cc1	-15	-1.2%	29%	7%
38	O=C1CCC(=O)N1N1C(=O)C2C3c4ccccc4C(c4ccccc43)C2C1=O (stereo unspecified)	0	.	29%	-1%
39	COc1ccc(Nc2ccc(N3C(=O)CCCC3=O)cc2[N+](=O)[O-])cc1OC	5	-6.0%	-3%	-2%
40	NC(N)=NC1=NC(=O)C(Cc2ccccc2Cl)S1 (stereo unspecified)	-13	1.0%	-9%[15.4 µM]	5%
41	COc1cccc(C2C(C(=O)c3sc(C)nc3C)=C(O)C(=O)N2CCN2CCOCC2)c1OC (stereo unspecified)	19	-3.5%	-13%	7%
42	COC(=O)c1cc(OCC(=O)NC2CCCc3ccccc32)cc(C(=O)OC)c1 (stereo unspecified)	24	.	-16%[15.4 µM]	-11%
43	COc1ccc(NC(=O)CSc2nnc(NC(=O)c3ccccc3C(=O)O)s2)cc1	4	.	2%[15.4 µM]	6%
44	CC(=O)NCCC(=O)Nc1nc(-c2ccc3c(c2)OCCO3)cs1	-1	0.4%	-2%	1%
45	O=c1oc2ccccc2c(O)c1C=NCc1ccccn1	6	0.7%	16%	7%
46	O=C(CN1C(=O)c2cccnc2Oc2ccc(Cl)cc21)N1CCOCC1	6	0.3%	?	11%
47	O=C(OCc1ccccc1)c1ccc(Br)o1	26	-2.8%	5%	4%
48	O=C(Oc1ccccc1/C=C\C(=O)c1cc2ccccc2o1)c1ccccc1	-3	1.5%	-27%	3%

no.	Menin MLL FP FL	D2 potentiator	Sfp inh
37	.	-11	.
38	0.9	5	8%
39	0.0	-11	14%
40	1.4	21	15%
41	-2.5	-1	-6%
42	-1.1	-1	-19%
43	4.9	-4	28%
44	-14	2	2%
45	0.5	-23	15%
46	.	-6	8%
47	5.3	-3	-1%
48	2.6	-4	-8%

# Entries 1 to 2, reprinted for reference:
no.	molecule	TRPV1 potentiator	ClpP mod	gsp agonist	gsp antag
1	Cc1nc(Cc2nnc(SCC(=O)N3CCN(c4ccc(O)cc4)CC3)o2)cs1	-2	-0.3%	-26%	2%
2	O=C(CN1CCCC1)Nc1ccccc1Sc1ccccc1	-49	.	2%[15.4 µM]	-2%

no.	Menin MLL FP FL	D2 potentiator	Sfp inh
1	.	2	.
2	1.1	-8	-7%
